Sfp PPTase inh – qHTS Assay for Inhibitors of Bacillus subtilis Sfp phosphopantetheinyl transferase (PPTase) | 4'-phosphopantetheinyl transferase ffp (Bacillus subtilis), Q9F4F7 | Biochemical Sfp PPTase activity, qHTS | Potency, µM, for the others: max response, negative = inhibition, actives largely listed as inhibitors | 310,000 compounds, 3.5% hits; active = well fitted inhibition curve with a large enough effect; inconclusive = small, poorly fitted or top-dose-only effect, or another doubt; inactive = no such curve, though single readings can be large or run the other way;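 note: the enzyme is Sfp with the accession as filed and its product quenches rhodamine fluorescence; potency is the fitted concentration of half-maximal effect; 0% = enzyme reaction without inhibitor and -100% = no enzyme wells; top concentration of the series not given in the record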
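After 15 min at room temperature with compound, 15 nM Sfp received 5 uM rhodamine-CoA plus 12.5 uM BHQ-2-ybbR (50 mM Hepes pH 7.6, 10 mM MgCl2). Rate came from the fluorescence difference over 30 min, ex 525/em 598 nm.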
ClpP mod – qHTS Assay for Activators of ClpP; purified B. subtilis ClpP, FRET peptide cleavage, 20 min; Potency, µM (top dose mostly 57.5 µM), without a hit: top-dose activity change, negative = active; ATP-dependent Clp protease proteolytic subunit (Bacillus subtilis (strain 168)), P80244; 340,000 compounds, 1.9% hits; AID 651965, 2013; active = well fitted falling curve with a large enough effect; inconclusive = small, poorly fitted or top-dose-only effect; inactive = no such curve, though single readings can be large or run the other way; note: potency is the fitted concentration of half-maximal effect; the source files actives as falling curves though it sought activators and does not explain the sign; nearly all actives have a fitted effect of over 65% in size; many hits overshoot -100%
Target sequence (P80244 whole entry, looked up): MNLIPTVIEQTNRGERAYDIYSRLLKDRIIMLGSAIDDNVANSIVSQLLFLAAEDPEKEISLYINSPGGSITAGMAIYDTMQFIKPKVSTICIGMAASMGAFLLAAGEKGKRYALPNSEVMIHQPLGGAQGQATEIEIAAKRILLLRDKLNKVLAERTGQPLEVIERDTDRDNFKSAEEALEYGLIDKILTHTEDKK
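ClpP 10 microg/mL final, pH 8 Tris/KCl buffer with BSA, glycerol, Tween-20; compound pinned in; FRET-FV substrate; RT 20 min; Ex320/Em430; ΔFRET vs ADEP 5.8 microM, DMSO, no enzyme.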
Menin MLL FP FL – qHTS Assay for Inhibitors Targeting the Menin-MLL Interaction in MLL Related Leukemias: Competition With Fluorescein Labeled MLL-derived Peptide | Fluorescence polarization, fluorescein-MLL peptide displacement from menin | AID 1766, 2009 | FP activity change, % at 61.4 µM | 290,000 tested, under 10 active; inconclusive = falling polarisation curve, or a change in total fluorescence; inactive = total fluorescence flat and polarisation flat or rising; no compound was filed as active; the % refers to the polarisation; negative = inhibition;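 note: % of control where 0% means no effect; inhibitors lower the polarisation; unlabelled MLL peptide was the positive control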
D2 potentiator – Beta-Arrestin HTS for Positive Allosteric Modulators of the Human D2 Dopamine Receptor: Potentiators; D(2) dopamine receptor (Homo sapiens), P14416; DiscoveRx D2 beta-arrestin cells, luminescence, 90 min; 100% = 57 uM dopamine signal; potentiation, % (test concentration not listed); 360,000 compounds, 0.23% hits; active = potentiation of 50% or more; inconclusive = 30% to 50%; inactive = 30% or less;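 note: compound concentration not given in the record; tested on top of an EC20 dose of dopamine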
Target sequence (P14416 whole entry, looked up): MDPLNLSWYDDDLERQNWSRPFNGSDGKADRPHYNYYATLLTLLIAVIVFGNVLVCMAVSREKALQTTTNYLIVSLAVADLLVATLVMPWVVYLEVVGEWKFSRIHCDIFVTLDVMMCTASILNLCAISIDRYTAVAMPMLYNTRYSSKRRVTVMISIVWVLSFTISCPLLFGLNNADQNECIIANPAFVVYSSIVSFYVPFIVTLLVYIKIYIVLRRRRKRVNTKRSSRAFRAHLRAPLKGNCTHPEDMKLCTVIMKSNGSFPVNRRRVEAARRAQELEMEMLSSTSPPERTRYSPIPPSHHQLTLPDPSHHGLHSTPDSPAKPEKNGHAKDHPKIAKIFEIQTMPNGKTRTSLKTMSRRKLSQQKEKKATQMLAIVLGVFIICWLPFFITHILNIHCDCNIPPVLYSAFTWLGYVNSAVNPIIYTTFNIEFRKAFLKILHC
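PathHunter D2 cells, attached overnight at 37 deg C, received compound in DMSO plus dopamine at EC20 (50 nM final) for 90 min at 37 deg C. Beta-arrestin recruitment was read as luminescence after 1 h with detection reagent at ambient temperature.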
gsp ag – qHTS for Agonist of gsp, the Etiologic Mutation Responsible for Fibrous Dysplasia/McCune-Albright Syndrome: qHTS; gsp mutant cells, cAMP HTRF, 30 min; control for the full effect not named in the record; Potency, µM (series often up to 76.9 µM), inactives show at the highest dose activation (cAMP increase), most hits filed as activators; 340,000 compounds, 0.13% hits; active = well fitted activation curve with a large enough effect; inconclusive = small, poorly fitted or top-dose-only effect, or another doubt; inactive = no such curve, though single readings can be large or run the other way; cell line not stated here;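 note: phosphodiesterase inhibitor Ro 20-1724 added with compounds to block cAMP breakdown; potency is the fitted concentration of half-maximal effect; nearly all actives have a fitted effect of over 60% in size; about a fifth of the inactives were tested at one dose only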
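Cells stably selected in G418 were plated at 2000/well, grown 16-24 hr, then given compounds in DMSO with the PDE inhibitor […] (300 uM solution added) for 30 min at 37C; cAMP was read by HTRF.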
TRPV1 PAM – HTS Assay for Compounds that Act as Potentiators of the Vanilloid Receptor 1; 320,000 compounds, 0.02% hits; Transient receptor potential cation channel subfamily V member 1 (Homo sapiens), Q8NER1; TRPV1-expressing cells, Fluo-8 calcium influx, capsaicin EC20 potentiation; host cell line not named in the record; control for the full effect not named in the record; potentiation, % at 8.33 µM; AID 540277, 2011; active means potentiation above 80%; inconclusive means 30% to 80%; inactive means below 30%; note: 0% is about no effect
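Cells expressing TRPV1 were dye-loaded with Fluo-8 and read kinetically: 10 s baseline, 3 min after compound (agonist portion), then 2 min after EC20 capsaicin (allosteric enhancer portion). Calcium-bound dye fluorescence at 480/520 nm.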
gsp antagonist – qHTS for Antagonists of gsp, the Etiologic Mutation Responsible for Fibrous Dysplasia/McCune-Albright Syndrome: qHTS; Potency, µM (doses to about 76.9 µM), for inactives: at the highest dose activity change, negative = inhibition, actives largely listed as inhibitors; AID 624288, 2012; gsp-mutant cells, cAMP HTRF, 30 min; control for the full effect not named in the record; 340,000 compounds, 0.4% hits; active = falling curve of any shape with a large fitted effect; inconclusive = falling curve, mostly with a smaller effect; inactive = flat or rising curve; cell line not stated here;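 note: intracellular cAMP measured with PDE inhibitor Ro 20-1724 present during compound exposure; potency is the fitted concentration of half-maximal effect; % is set by controls: 0 for no effect and ±100 for the full control effect; nearly all actives have a fitted effect of over 65% in size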
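HTRF cAMP measurement after 30 min RT detection following 30 min, 37C compound treatment alongside […] (added as 300 uM solution) in G418-selected cells seeded at 2000/well and grown 16–24 h.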
* marks the source's active call; other numbers are inactive results; ? = inconclusive; · = not tested or not shown; [ ] = another dose, or the depositor's remark.

No.	canonical_smiles	Sfp PPTase inh	ClpP mod	Menin MLL FP FL	D2 potentiator	gsp ag	TRPV1 PAM	gsp antagonist
1	C/C(=N\NC(=O)c1c(Cl)cnn1C)c1ccc(NC(=O)c2ccncc2)cc1	1.5%	0.5%	-0.2	4.0	-7.5%[15.4 µM]	-3.2	-0.7%
2	O=C(c1ccc(S(=O)(=O)N2CCC(c3nc4ccccc4[nH]3)CC2)cc1)N1CCOCC1	50.1µM*	-1.5%	-1.9	-15.5	-1.1%	-2.0	-9.5%
3	Nc1nc(SCc2c(Cl)cccc2Cl)n[nH]1	0.9%	1.3%	2.1	-2.1	8.7%	3.1	4.0%
4	CC1=C(C(=O)OC(C)C)C(c2ccc3c(c2)OCO3)NC(=O)N1 (stereo not given)	16.4%	·	-8.0	-0.2	-26.9%	0.6	1.6%
5	CCOc1ccc(-c2cc(CCCC(=O)N3CCN(c4ccc(OC)cc4)CC3)no2)cc1	-6.4%	-6.4%	-3.6	-12.9	-35.3%[inhibitor]	18.8	-14.4%
6	CCc1sc(C(=O)NCCc2ccc(S(N)(=O)=O)cc2)cc1C	14.9%	·	4.7	-7.5	?	0.6	-0.6%
7	O=C(Nc1cc(S(=O)(=O)N2CCOCC2)ccc1N1CCCC1)c1cc(F)c(F)cc1Cl	·	-1.4%	·	-24.1	0.5%	3.4	-7.6%
8	Cc1ccc(CNC(=O)CCc2ccccc2)cc1	15.2%	1.1%	-0.7	-3.8	21.9%	-12.8	14.7%
9	CCN(CC)C1CCS(=O)(=O)C1 (stereo not given)	-3.8%	·	-1.4	0.9	19.4%	-16.9	10.8%
10	COCCCNC(=O)C1CCCN(S(=O)(=O)c2ccc(C)cc2)C1 (stereo not given)	14.6%	0.1%	2.2	-11.8	1.6%	-1.5	4.4%
11	O=C(Nc1ccc(F)cc1F)c1ccc2c(c1)[nH]c(=O)n2Cc1ccc(F)cc1	13.9%	-5.9%	-5.8	-0.7	-5.9%	3.2	-9.4%
12	CC(C(=O)Nc1ccon1)N1C(=O)c2ccccc2S1(=O)=O (stereo not given)	·	0.8%	·	3.1	15.5%[15.4 µM]	?	13.1%
13	NN(CCO)C(=S)Nc1ccc(Cl)cc1	-7.5%	-0.5%	0.1	-0.8	-7.3%	1.1	4.8%
14	O=C(NCCCCC(NC(=O)C1CCCCC1)C(=O)O)c1ccccc1 (stereo not given)	25.0%	-0.3%	-1.1	-7.0	-60.1%[inhibitor]	8.5	6.4%
15	CCOC(=O)C1(CCCc2ccccc2)CCN(Cc2ccn[nH]2)CC1	6.3%	·	-0.9	-11.8	16.4%	-4.5	3.6%
16	CC(=O)c1ccc(-c2ccccc2OC(F)(F)F)o1	3.2%	-17.2%	-3.6	-8.1	-1.9%	·	2.2%
17	O=C(CC(SCc1ccco1)c1ccc(O)cc1)c1cccs1 (stereo not given)	56.2µM*	-1.1%	8.3	-20.3	23.0%	23.7	3.1%[15.4 µM]
18	Cc1ccc(N2C(=O)CC(Sc3ccccc3C(=O)O)C2=O)cc1 (stereo not given)	?	-1.2%	4.6	-8.3	12.2%	-13.4	5.8%
19	CCCc1nn(C)c(C(=O)Nc2cccc(C)c2)c1Cl	3.4%	-3.1%	2.2	-2.1	-10.6%[15.4 µM]	-12.3	-11.4%
20	CCOc1ccc(/C=N/NC(=O)C(C)N(c2ccc(OC)cc2)S(C)(=O)=O)cc1OCC (stereo not given)	15.7%	-2.4%	-0.8	-8.0	-13.4%	4.7	8.5%
21	CC(=O)C1=C(C)NC(SCSc2ccccc2)=C(C#N)C1c1cccnc1 (stereo not given)	-92.6%	-5.7%	4.1	-8.5	-48.6%[inhibitor]	-2.4	-12.1%
22	CC(=O)c1[nH]c(C)c(C(=O)N2CCCC(Nc3cccc(F)c3)C2)c1C (stereo not given)	9.1%	0.9%	·	-4.4	-31.9%[inhibitor]	-9.1	24.6%
23	Cn1c(-c2cccc(Br)c2)cnc1NCc1ccccc1O	-12.7%	·	-0.8	-11.5	-6.8%	-4.4	-6.3%
24	CN(C(=O)COC(=O)c1ccc2c(c1)OCO2)C1CCS(=O)(=O)C1 (stereo not given)	1.7%	0.5%	?	0.6	-12.2%	1.2	6.9%
25	COc1ccc(CN2CCN(Cc3ccc(C)cc3)CC2)c(OC)c1	-19.1%	-0.6%	-4.9	-16.6	-5.5%[15.4 µM]	-34.6	11.6%
26	CC(C)(C)NC(=O)N1CCCC(C(=O)c2cccc(Cl)c2)C1 (stereo not given)	10.1%	-0.2%	-1.8	-2.9	18.5%	1.6	-2.9%
27	Cc1onc(-c2ccccc2)c1C(=O)NCC1CCN(C(=O)c2c(-c3ccccc3)noc2C)CC1	13.8%	-1.3%	2.2	-8.9	-14.2%	11.6	-5.4%
28	Cc1ccc(CN2CCN(C3CSCCSC3)CC2CCO)cc1 (stereo not given)	9.3%	0.4%	-0.2	-20.7	-55.5%[inhibitor]	5.7	7.0%
29	O=C(C1CCC(CNc2c(N3CCCC3)c(=O)c2=O)CC1)N1CCc2ccccc21 (stereo not given)	-2.2%	-2.6%	1.0	-15.7	2.4%	27.6	-13.2%
30	O=c1c2ccccc2n2c(-c3ccc(C(F)(F)F)cc3)nnc2n1Cc1ccccc1	-10.3%	-13.1%	3.2	-8.9	-13.6%	-12.4	9.2%
31	CCn1c(SCC(=O)N2CCCC2)nnc1-c1ccc(S(=O)(=O)N2CCCCCC2)cc1	12.1%	-3.6%	0.0	-1.2	-8.4%	-5.1	-24.3%
32	CCCCN(CC)C(=O)Cn1ncc2c1-c1cc(C)ccc1OC2	?	-1.6%	0.7	-10.6	-71.8%[inhibitor]	-15.0	0.1%
33	Cc1cc(C)n(-c2ccc(Cl)c(C(=O)Nc3ccc(-c4nnc5n4CCCCC5)cc3)n2)n1	-1.5%	-9.8%	-0.5	-0.8	-71.1%[inhibitor]	-10.1	-21.9%
34	Cc1cc(=O)n2[nH]c(-c3ccc(F)cc3)nc2n1	4.2%	?	-1.9	-17.3	8.2%	4.6	-20.8%
35	O=C(Nc1ccsc1C(=O)N1CCCC1)c1ccccc1	21.8%	·	-1.6	2.0	-11.6%[15.4 µM]	7.1	4.4%
36	Cc1ccsc1/C=N/Nc1ccc(C(=O)O)cc1	19.1%	-2.4%	-7.4	-4.1	18.3%	4.6	-17.9%
37	Cc1cccc2c1-c1sc(C(=O)N3CCCCC3)cc1CO2	-9.0%	4.1%	1.1	-4.5	-9.3%	2.3	-28.6%
38	COc1c(C)cc(C(=O)C2CCCN(C(=O)c3cc(C4CC4)[nH]n3)C2)cc1C (stereo not given)	-2.2%	-0.4%	·	0.1	10.3%	21.2	2.6%
39	COc1cc(C(=O)OC(C)C(=O)Nc2ccc3c(c2)OCCO3)cc(OC)c1OC (stereo not given)	·	-22.0%	·	-20.5	9.5%[15.4 µM]	·	-1.1%
40	O=C(CN1C(=O)NC(c2ccccc2)(c2ccccc2)C1=O)Nc1ccc(N2CCOCC2)cc1	·	·	·	5.2	2.1%	·	-22.5%
41	COc1ccc(NC(=O)NNC(=O)C(C)Oc2ccc3ccccc3c2)cc1 (stereo not given)	10.5%	0.8%	-5.6	2.2	-16.6%	18.7	-20.8%
42	CCOC(=O)N1CCC(N2Cc3cccc(C(=O)Nc4c(C)cccc4CC)c3C2=O)CC1	2.2%	·	2.4	15.1	?	-19.0	?
43	O=C(Nc1ccc(F)c(F)c1)C1=COCCO1	·	-1.7%	·	-32.0	-24.0%[15.4 µM]	7.2	12.4%
44	CCOc1ccccc1C1CC(c2ccc(F)cc2)Nc2nc(N)nn21 (stereo not given)	2.5%	-0.6%	0.6	-3.8	-5.2%	·	-4.9%
45	C=CCN1C(=NC(=O)COc2ccccc2)SC2CS(=O)(=O)CC21 (stereo not given)	17.6%	0.9%	·	-9.0	-2.7%	-12.8	7.5%
46	Cc1ccc2cc3cc(C(=O)NCc4ccco4)oc3nc2c1	?	14.1µM*	1.0	0.1	20.9%	·	2.2%
47	Cc1ccc(C(=O)NCCn2cc(SCC(=O)N3CCOCC3)c3ccccc32)cc1	-20.2%	0.9%	1.7	-1.7	-19.7%	-7.6	-14.7%
48	Cn1c(=O)cc(SCC(=O)NCCCN2CCOCC2)c2ccccc21	11.4%	-27.6%	1.5	-21.1	22.4µM*	-0.5	-1.6%
49	CCC(=O)c1ccc(OCC(=O)OCc2csc(CC(=O)Nc3ccccc3C)n2)cc1	·	-1.5%	·	-7.6	-29.4%	·	·
50	OCCN1CCN(CCCN2c3ccccc3CCc3ccccc32)CC1	·	1.3%	·	-24.6	-17.9%	·	·

Assay outcomes: PubChem BioAssay, National Center for Advancing Translational Sciences (NCATS)

Hits appear at their usual frequency, and some 5.1% of all compounds hit somewhere here.
